FGF22 binding: binders of human FGF22 protein, primary screen, FGF22 synaptogenesis inhibitor project, biophysical, thermal shift, single point; Fibroblast growth factor 22 (Homo sapiens), Q9HCT0; recombinant FGF22 thermal shift, SYPRO orange fluorescence; percent of sucrose octasulfate shift, DMSO zero; calls only at 9.99 µM; 1.5% of 340,000 active; AID 651658, 2012;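 active means melting point raised past a set limit in the mean and every replicate; inconclusive means no clear call; three in four hits are not shown here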
MLL AF4-AF9 inh: inhibitors of AF4 peptide binding to AF9, primary screen, biochemical, AlphaScreen, biotin-AF4 peptide, FLAG-AF9, single point | 0.47% of 350,000 active | inhibition, % at 10 µM | AID 651704, 2012;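 active means every replicate reaching a set inhibition limit, whatever the replicate mean, cut at about 25% in these data; inconclusive means mean inhibition reaches that limit but some replicates miss it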;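 further: 0% = plate neutral control median and 100% = total signal loss; the record names both 10 and 1 µM as test concentration; the first replicate is given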
Target sequence (P42568 whole entry, looked up): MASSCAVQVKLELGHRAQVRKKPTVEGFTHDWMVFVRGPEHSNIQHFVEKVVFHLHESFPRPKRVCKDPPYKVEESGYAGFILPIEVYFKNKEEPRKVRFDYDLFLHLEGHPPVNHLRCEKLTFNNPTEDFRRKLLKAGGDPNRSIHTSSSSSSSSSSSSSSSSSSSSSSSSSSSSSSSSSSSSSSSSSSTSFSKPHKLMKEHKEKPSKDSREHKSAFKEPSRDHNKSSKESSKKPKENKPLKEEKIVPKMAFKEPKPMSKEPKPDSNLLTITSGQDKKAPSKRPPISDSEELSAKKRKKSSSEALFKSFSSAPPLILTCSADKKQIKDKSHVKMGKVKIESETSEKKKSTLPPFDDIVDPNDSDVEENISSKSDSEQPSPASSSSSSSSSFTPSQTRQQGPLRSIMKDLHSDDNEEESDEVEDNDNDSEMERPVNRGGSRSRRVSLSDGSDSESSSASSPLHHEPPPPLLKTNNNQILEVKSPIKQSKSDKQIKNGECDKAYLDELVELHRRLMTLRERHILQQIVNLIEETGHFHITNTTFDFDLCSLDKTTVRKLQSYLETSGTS
ALR H2O2 inh: inhibitors of human ALR sulfhydryl oxidase, primary screen, biochemical, H2O2 detection, HRP-luminol luminescence, single point | FAD-linked sulfhydryl oxidase ALR (Homo sapiens), P55789 | purified ALR, DTT oxidation | inhibition, % (concentration not given with the values) | 3.8% of 290,000 active | AID 485317, 2010;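 active means mean and each replicate at 75% or more; inconclusive means only one of the two met; inactive means neither met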;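 further: stock transfer was 7.5 nL into about 7.5 µL; 0% = neutral wells and 100% = wells with inactivated enzyme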
E coli growth: E. coli growth inhibition, primary screen, OD600 | OD600 absorbance (concentration not given with the values) | Escherichia coli growth, 23 h; stronger effect = lower value | 0.21% of 330,000 active | AID 1053175, 2014;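 active means OD600 absorbance below the run mean of sample wells minus 3.6 SD, in any replicate, cut at about 0.56 in these data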;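 further: stock transfer was 300 nL into about 60 µL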
Vif A3G: inhibitors of Vif binding to APOBEC3G peptide, primary screen, biochemical, TR-FRET, GST-Vif 1-94, biotin-A3G peptide, dose response retest (AID 1117319). Virion infectivity factor (Human immunodeficiency virus type 1 group M subtype B (isolate …. one-dose inhibition, %; IC50 in µM for titrated hits. 0.57% of 260,000 active. TR-FRET GST-Vif / biotin-A3G peptide binding; higher % means a stronger effect; test concentration not given here; strong numbers were not always called active;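 active means above the screen mean plus three standard deviations and confirmed in dose response; inconclusive means results disagree or hit not tested in dose response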;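 further: Vif residues 1-94 fused to GST binding biotinylated APOBEC3G peptide 110-148; 0% = full assay without inhibitor and 100% = GST in place of GST-Vif; retest series ran down from 100 µM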
Ecoli rRNA inh: reduced GFP signal of wild-type E. coli, primary screen, bacterial rRNA inhibitor project, GFP/RFP fluorescence, OD600, single point; E. coli WT GFP vs humanized-ribosome RFP mutants, 24 h; stronger effect = lower value; DMSO median 0, no signal -100; GFP signal change (wild-type ribosome), % (concentration not given with the values); 1.6% of 350,000 active; AID 720706, 2013;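 active means significant combined selectivity score with lowered wild-type GFP, culture density cut under 30%, mutant RFP and density less affected; inactive means any of these conditions unmet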; further: one replicate is shown; some compounds called inactive have numbers as strong as hits
HNF4A DNA FP: change in binding of human HNF4A to DNA, primary screen, biochemical, fluorescence polarization, FITC-DNA | 1 h | 0.3% of 360,000 active | Hepatocyte nuclear factor 4-alpha (Homo sapiens), P41235 | activity change, % at 10 µM; in the data active means activity change above about 30%, passing the limit was not always enough;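 further: controls were the assay level and a saturating level of protein; the project sought stronger binding though the title names inhibitors; some compounds called inactive have numbers as strong as hits; positive values seem to mean higher polarization but the record does not say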
Target sequence (P41235 whole entry, looked up): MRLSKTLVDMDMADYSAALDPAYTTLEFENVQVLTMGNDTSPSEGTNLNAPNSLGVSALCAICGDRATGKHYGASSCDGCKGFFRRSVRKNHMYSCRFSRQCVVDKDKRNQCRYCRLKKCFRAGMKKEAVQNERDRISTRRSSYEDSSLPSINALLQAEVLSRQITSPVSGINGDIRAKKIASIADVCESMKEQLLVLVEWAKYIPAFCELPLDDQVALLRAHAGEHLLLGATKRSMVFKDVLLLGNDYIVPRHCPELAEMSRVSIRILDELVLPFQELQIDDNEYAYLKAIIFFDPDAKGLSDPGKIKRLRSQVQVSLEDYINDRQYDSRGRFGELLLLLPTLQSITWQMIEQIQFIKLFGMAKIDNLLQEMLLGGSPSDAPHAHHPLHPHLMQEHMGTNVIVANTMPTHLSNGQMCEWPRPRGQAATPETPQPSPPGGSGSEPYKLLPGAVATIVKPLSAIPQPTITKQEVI
Ecoli rRNA inh OD600: further read-out of Ecoli rRNA inh, marked with its call; OD600 change, %; measured here: OD600 growth;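 optical density of the mix in the first replicate; 0 = DMSO median and -100 = no signal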
Ecoli rRNA inh RFP: recorded beside Ecoli rRNA inh, whose call it bears; RFP signal change, %; measured here: RFP humanized mutant strains;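 first replicate; 0 = DMSO median and -100 = no signal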
Numbers without * were called inactive; i = inactive; u = inconclusive; x = no result given.

SMILES	FGF22 binding	MLL AF4-AF9 inh	ALR H2O2 inh	E coli growth	Vif A3G	Ecoli rRNA inh	Ecoli rRNA inh OD600	Ecoli rRNA inh RFP	HNF4A DNA FP
Cc1ccc2c(C)c(C(=O)N3CCN(Cc4ccc5c(c4)OCO5)CC3)oc2c1C	i	0.9	2.8	0.671	-3.6%	-18.5	-55.6	2.9	-2.9
COc1cccc(C(=O)Nc2ccc3c(c2)C(=O)N(C)C[C@@H](OC)[C@H](C)CN(CCc2ccccc2)[C@H](C)CO3)c1	i	1.2	x	x	x	-7.4	-3.2	4.8	x
CN(C)CCCNc1oc(-c2ccccc2)nc1C#N	x	x	9.6	0.721	19.1%	x	x	x	3.3
CCC1=NN(C(=O)c2cccc(Br)c2)C(O)(c2ccc(Br)cc2)C1 (stereo not drawn)	i	4.4	-1.8	0.678	31.3%	-60.5	-79.6	-21.6	0.9
CC(C)=CCCC(C)CCO (stereo not drawn)	i	-1.9	x	0.663	x	16.5	-0.6	7.3	-3.5
O=C(C[C@@H]1C[C@@H]2c3cc(NS(=O)(=O)c4ccccc4)ccc3O[C@@H]2[C@H](CO)O1)N1CCCCC1	i	-1.0	x	x	x	-1.3	-1.2	2.8	x
N#Cc1ccccc1CSc1ccc(-c2nc3ccccc3[nH]2)cn1	x	x	-3.5	0.669	25.8%	x	x	x	3.2
CN(C)C(CNC(=O)c1cc(S(=O)(=O)N2CCOCC2)ccc1Cl)c1cccs1 (stereo not drawn)	i	-24.0	x	0.678	x	0.9	7.7	-1.3	2.9
Cc1ccc(S(=O)(=O)N2CCCCC2C(=O)NCc2ccco2)cc1 (stereo not drawn)	x	x	-0.4	0.743	5.8%	x	x	x	1.8
CCCNC(=O)[C@H]1[C@H](CO)[C@H]2Cn3c(ccc(-c4ccccc4)c3=O)[C@@H]1N2Cc1ccccc1F	i	1.2	x	x	x	-3.1	-4.5	2.1	x

Part of the list above with just Ecoli rRNA inh OD600 and ALR H2O2 inh:
Molecule	Ecoli rRNA inh OD600	ALR H2O2 inh
CN(C)C(CNC(=O)c1cc(S(=O)(=O)N2CCOCC2)ccc1Cl)c1cccs1 (stereo not drawn)	7.7	x
Cc1ccc(S(=O)(=O)N2CCCCC2C(=O)NCc2ccco2)cc1 (stereo not drawn)	x	-0.4

(more compounds)
SMILES	FGF22 binding	MLL AF4-AF9 inh	ALR H2O2 inh	E coli growth	Vif A3G	Ecoli rRNA inh	Ecoli rRNA inh OD600	Ecoli rRNA inh RFP	HNF4A DNA FP
Cc1ccc(/C=C/C(=O)Nc2cccnc2)o1	x	x	-0.6	0.676	u	x	x	x	-5.9
O=C(C[C@@H]1CC[C@H](NC(=O)C2CCC2)[C@H](CO)O1)NC1CCC1	i	-0.5	x	x	x	2.3	2.7	-2.8	x
CCOC(=O)c1cc(-c2csc(COc3ccccc3)n2)on1	i	1.9	-5.1	0.667	-8.8%	-4.5	-3.2	-4.8	2.2
C[C@@H]1CN([C@@H](C)CO)C(=O)CCCn2nncc2CO[C@@H]1CN(C)C(=O)CCCN(C)C	i	-1.6	x	x	x	0.5	5.7	-0.6	x
O=C(Cc1ccccn1)NCC[C@H]1CC[C@@H](NC(=O)Nc2ccc(C(F)(F)F)cc2)[C@@H](CO)O1	i	3.0	x	x	x	-1.8	-11.2	5.1	x
O=C(N[C@H]1CC[C@@H](CC(=O)N2CCOCC2)O[C@H]1CO)c1ccccn1	i	0.2	x	x	x	-1.1	1.2	-4.3	x
CC(C)(C)S(=O)N1Cc2ccc(CO)cc2[C@H]1CCO (stereo partly drawn)	i	-2.0	x	0.709	-4.6%	3.4	0.4	-4.0	0.2
COc1ccc(/C(O)=C2/C(=O)C(=O)N(CCN(C)C)C2c2ccc(C)cc2)cc1Cl (stereo not drawn)	x	x	1.2	0.729	-4.1%	x	x	x	-0.1
COCCNC(=O)c1cc2nc(-c3ccc(F)cc3)cc(C(F)(F)F)n2n1	i	-1.1	-23.8	0.67	7.3%	12.3	5.5	1.2	3.4
O=C(Nc1ccccc1)Nc1ccccc1-n1ccnc1	i	3.3	-12.0	0.664	2.0%	1.7	8.2	1.0	-0.1

As entered above:
In ALR H2O2 inh, COc1ccc(/C(O)=C2/C(=O)C(=O)N(CCN(C)C)C2c2ccc(C)cc2)cc1Cl (stereo not drawn) is entered as 1.2
In HNF4A DNA FP, CC(C)(C)S(=O)N1Cc2ccc(CO)cc2[C@H]1CCO (stereo partly drawn) is entered as 0.2
In ALR H2O2 inh, Cc1ccc(/C=C/C(=O)Nc2cccnc2)o1 is entered as -0.6

Carrying on:
SMILES	FGF22 binding	MLL AF4-AF9 inh	ALR H2O2 inh	E coli growth	Vif A3G	Ecoli rRNA inh	Ecoli rRNA inh OD600	Ecoli rRNA inh RFP	HNF4A DNA FP
O=C(Nc1nc2n(n1)C(c1ccc(F)cc1)CC(c1ccccc1)N2)c1ccco1 (stereo not drawn)	i	1.2	-2.5	0.662	-0.4%	-16.0	-5.4	4.7	5.4
N#CC1=C(N)OC2=C(C(=O)CCC2)C1c1cc2c(cc1Cl)OCO2 (stereo not drawn)	i	-2.5	x	0.677	x	5.9	-7.1	0.3	-5.5
C=C(CCO)C1=CCN(S(=O)C(C)(C)C)[C@@H]1CCO (stereo partly drawn)	i	-4.3	x	0.681	-3.0%	25.3	8.0	3.7	0.2
COc1ccccc1OCCNC(=O)C(c1ccccc1)c1ccccc1	i	-2.6	-17.8	0.615	-2.5%	-2.2	-0.2	1.3	-2.6
O=C(Cn1cnc2ccccc2c1=O)Nc1ccc(S(=O)(=O)N2CCCC2)cc1	i	-2.8	-6.0	0.715	-2.8%	-7.2	-9.6	-2.3	-2.5
C=CCn1c(NCc2c[nH]c3ccccc23)nc2ccccc21	x	x	56.9	0.707	0.3%	x	x	x	-1.3
COC(=O)C1=NNC2(c3ccc(C)cc3)C(=O)N(c3ccc(C)cc3)C(=O)C12 (stereo not drawn)	i	-1.8	x	0.649	-0.9%	12.8	17.3	0.3	-0.2
Clc1ccccc1OCCN1CCC(Cc2ccccc2)CC1	i	10.0	-3.9	0.557	x	-31.9	-27.2	6.2	-2.5
c1ccc(Cn2c(Sc3nnnn3-c3ccccc3)nnc2-c2ccccc2)cc1	x	x	-22.2	0.659	4.6%	x	x	x	-0.6
O=C(NNC1=NCCC1)c1cccc(Br)c1	x	x	7.5	0.656	8.0%	x	x	x	0.4
Cc1nc(NCc2cccnc2)c2c3c(sc2n1)CCCC3	i	-1.0	-2.2	0.674	1.8%	-21.5	-36.7	-9.8	2.9
CCN(CC)CCCNC(=O)C1c2ccccc2Oc2ccccc21	x	-5.3	1.6	0.748	12.6%	x	x	x	-2.2
COc1ccc(NC(=O)CN(C)C(=O)C2CC(=O)N(Cc3ccc(C)cc3)C2)cc1 (stereo not drawn)	i	-2.6	4.0	0.686	-4.9%	1.0	11.8	-1.2	3.6
CO[C@H]1CN(C)C(=O)c2ccc(NS(=O)(=O)c3ccccc3)cc2OC[C@@H](C)N(Cc2cccnc2)C[C@H]1C	i	-1.1	x	x	x	-0.4	-2.3	-2.3	x
Cc1ccc(C)c(NC(=O)C(=O)NCCc2c[nH]c3ccccc23)c1	i	-32.0	5.8	0.661	-1.5%	-20.8*	-11.4*	4.2*	-4.8
Cc1c(NC2=C(Cl)C(=O)N(c3ccccc3Cl)C2=O)c(=O)n(-c2ccccc2)n1C	x	x	x	0.713	u	x	x	x	-6.9
S=C1NCCNC(=S)NCCOCCOCCOCCN1	i	-0.5	3.3	0.672	10.0%	8.1	1.8	-6.1	1.2
CCc1cc(=O)oc2c(C)c(OCC(=O)NCCCN3CCOCC3)ccc12	i	-0.2	4.6	0.61	x	-3.4	1.7	1.6	-2.2
CN1CCN(Cc2c(C#N)c3ccccc3n2C)CC1	x	x	-24.9	0.67	15.5%	x	x	x	1.7
CCCCn1c(N)c(N(CC)C(=O)c2ccc([N+](=O)[O-])c(C)c2)c(=O)[nH]c1=O	i	-1.6	2.1	0.658	x	1.1	11.3	-1.1	-2.9
Cc1ccc(C)c(C(=O)CN2C(=O)c3ccccc3S2(=O)=O)c1	x	x	-2.5	0.708	0.0%	x	x	x	-5.3
COCCNC(=O)C1Cc2c(ccc3ccccc23)O1 (stereo not drawn)	i	-1.2	-23.7	0.653	-2.8%	7.8	-4.4	-5.0	1.1
Cc1ccc(NC(=O)CSc2nnc3ccc(-c4ccncc4)nn23)cc1	i	0.6	x	0.678	5.1%	1.5	6.2	-2.2	0.3
Cc1ccc(S(=O)(=O)NCC2CCC(C(=O)N3CCN(C)CC3)CC2)cc1 (stereo not drawn)	i	-1.7	-1.9	0.732	x	1.9	-12.8	-0.6	-1.8
CCCC(=O)Nc1ccc2c(c1)OC[C@H](C)NC[C@@H](C)[C@@H](OC)CN(C)C2=O	i	-3.7	x	x	x	2.2	-5.3	-2.0	x
CC(=O)c1ccccc1NC(=O)COC(=O)Cc1cccc(C(F)(F)F)c1	i	-54.5	x	0.711	-12.1%	9.0	13.7	-0.4	-2.7
O=C(NCCCn1ccnc1)/C(=C\c1cccnc1)NC(=O)c1ccccc1Br	x	x	-1.4	0.65	9.0%	x	x	x	-0.5
Cc1cccc(C(=O)NCCc2ccc(S(N)(=O)=O)cc2)c1[N+](=O)[O-]	x	x	-5.6	x	u	x	x	x	-0.1
CC(C)NC(=O)Nc1ccc2c(c1)C(=O)N([C@@H](C)CO)C[C@@H](C)[C@@H](CN(C)C(=O)NC(C)C)OCCCC[C@@H](C)O2	i	-10.6	x	x	x	-2.3	4.2	-4.2	x
CCC(C)(C)NC(=O)CN(Cc1ccc2c(c1)OCO2)C(=O)CCC(=O)Nc1cc(C)ccn1	i	-6.6	1.6	0.667	1.0%	2.8	10.5	0.1	-2.2
Cc1ccc(NC(=O)CN2C(=O)N/C(=C/c3ccco3)C2=O)cc1	x	x	7.7	x	2µM*	x	x	x	-14.8
CCc1ccc(-c2cc(C)no2)cc1S(=O)(=O)NCCCN1CCN(c2ccccc2)CC1	i	10.4	19.2	0.665	x	-14.1	-34.2	1.0	0.1
C[C@H](CO)N1C[C@H](C)[C@@H](CN(C)S(=O)(=O)c2ccccc2)OCCCC[C@H](C)Oc2ccc(NS(=O)(=O)c3cn(C)cn3)cc2C1=O	i	-1.9	x	x	x	4.4	1.5	-1.1	x
COc1ccccc1/C(O)=C(\C#N)c1nc2ccccc2[nH]1	i	-1.5	x	0.738	-0.3%	13.4	14.2	-4.4	-1.2
COC(=O)c1cc2c(c3c4cc(C)ccc4n(S(=O)(=O)c4ccc(OC)cc4)c13)C(=O)N(C)C2	i	1.7	x	x	x	-1.8	-0.3	4.9	x
O=C1OC(CN(Cc2ccccc2)Cc2ccccc2)CN1N=Cc1ccc([N+](=O)[O-])o1 (stereo not drawn)	i	0.3	x	0.621	8.2%	-4.5	5.2	1.3	8.9
CCn1c2c(c3cc(Br)ccc31)CCC/C2=N\O	x	x	33.2	x	-42.0%	x	x	x	7.1
Cc1ccc2c(c1)-n1c(nc3cc(F)ccc3c1=O)C(Cc1ccccc1)NC2=O (stereo not drawn)	i	1.3	3.1	x	x	-8.4	-16.6	-14.1	x
CN(C)/C=C/C(=O)c1cccc(C(F)(F)F)c1	i	-4.3	x	0.704	1.5%	6.1	3.2	-0.1	1.6
CN(Cc1n[nH]c(=S)n1C)S(=O)(=O)c1ccccc1	i	-3.3	85.0*	0.671	7.5%	9.3	-1.9	-3.0	6.8

Only part of the results is shown, so the mix of outcomes need not match the whole.
